BJeLR lethal: MLPCN primary cell-based screen for lethality selective to Ras in HRASV12 cells. BJeLR (HRASV12) viability, CellTiter-Glo ATP luminescence, 48 h; reference of the scale not given here. inhibition, % (no concentration beside the values). actives 0.17% (n = 300,000). AID 1554, 2009;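 active means replicate mean above 50%; inconclusive means above 50% but judged a plate artefact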;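 further: 50 nL library stock added to about 25 µL; numbers are from one replicate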
PrP 5UTR inh: inhibition of PrP 5' UTR reporter expression; cell-based PrP 5' UTR mRNA reporter, plate reader; inhibition, % (concentration not given with the values); actives 0.35% (n = 340,000); AID 488862, 2010;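 active means every replicate at 50% or more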;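 further: 0 = median of the neutral control wells; tested in H4 reporter cells; numbers are from one replicate; inactives centre near -14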
ugtP null kill: growth inhibition of ugtP-null S. aureus, primary screen, RN4220 ugtP deletion, OD600. 16 h; some inactives read as strong as hits. growth inhibition, % (no concentration beside the values). actives 0.54% (n = 330,000);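 active means z-score under -3 and OD600 up to 0.15 on both plates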;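 further: plate controls were untreated wells for no effect and antibiotic for full effect; wells of about 80 µL received 100 nL stock; the first replicate is given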
Mtb hypoxia inh: PubChem AID 1159583. fluorescence inhibition, % (no concentration beside the values). actives 0.1% (n = 300,000). M. tuberculosis hypoxia-regulated fluorescent reporter, fluorescence;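 active means 35 to 45% if threefold the growth effect, above 45% if 1.5-fold the growth effect; inactive means the rest, general growth blockers included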;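 further: wells of about 50 µL received 100 nL stock; 0% = vehicle wells and 100% = reference inhibitor wells; whole bacteria with a GFP reporter of the hypoxia response; strong numbers were not always called active; many hits fall short of the cut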
RN4220 kill: growth inhibition of S. aureus RN4220, primary screen, OD600 | 16 h | inhibition, % (concentration not given with the values) | actives 0.33% (n = 330,000);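 active means z-score of -3 or lower and OD600 up to 0.18 on both plates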;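 further: plate controls were untreated cells for no effect and reference antibiotic for full effect; stock transfer was 100 nL into about 80 µL; one replicate is shown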
Bead autofluor: counter-screen for toxin protease inhibitors: compound fluorescence; compound autofluorescence counterscreen, microsphere flow cytometry; stronger effect = higher value; AID 624483; fluorescence intensity (test concentration not listed); actives 3.1% (n = 360,000);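 active means at least 3 SD above the mean of all compounds, about 16000 in these data; inconclusive means too few beads counted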;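 further: 100 nL of 1 mM stock went into each well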
Mtb hypoxia inh growth: second read-out of Mtb hypoxia inh, no call of its own (marks repeat the call); growth inhibition, %; measured here: M. tuberculosis growth (absorbance);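 0% = vehicle and 100% = reference antibiotic; read after six days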
Active calls of the source: *; ? = inconclusive; / = no result given. Compounds were not picked by outcome; about 4% have a hit in one of these screens.

canonical_smiles	BJeLR lethal	PrP 5UTR inh	ugtP null kill	Mtb hypoxia inh	Mtb hypoxia inh growth	RN4220 kill	Bead autofluor
CC1CN(C(C)CO)C(=O)Cc2cc(NC(=O)Nc3cccc4ccccc34)ccc2OC1CN(C)S(C)(=O)=O (stereo not given)	/	/	-15	9	13	1.4	/
O=C(Nc1cccc2c1CCCC2)c1ccccc1F	-3	-7	4	/	/	6.3	3877
O=C(NCC(=O)N(c1ccc2c(c1)OCO2)C(C(=O)NC1CCCC1)c1cccs1)c1ccco1 (stereo not given)	-1	-20	8	/	/	3.6	4182
COc1ccc(OC)c(NC(=O)c2ccc(S(=O)(=O)N3CCOCC3)cc2)c1	-4	-18	5	-2	-1	4.3	4437
COc1ccc(CCNC(=O)C2CCN(C(=O)c3ccccc3C)CC2)cc1	2	-13	15	-3	5	2.7	4006
COC(=O)C(C#N)C(c1cccnc1)c1c(C)[nH][nH]c1=O (stereo not given)	1	-27	-1	15	5	3.8	8101
c1ccc(N2CCN(c3nc4cc5c(cc4s3)OCO5)CC2)cc1	-10	-118	0	1	6	14	4270
CC(=O)NC1=NN(C(C)=O)C(c2ccccc2)S1 (stereo not given)	-6	-30	1	-1	6	3.9	3204
O=C(/C=C/c1ccc(F)cc1)c1ccc(N2CCOCC2)cc1	-2	-9	4	2	-7	3.4	3557
CC(C)(C)NC(=O)c1cc(C(C)(C)C)c(O)c(C(C)(C)C)c1	1	-50	10	-1	-4	1.5	4916
O=C(OCc1ccccc1)C1=NNC2C(=O)N(c3ccccc3)C(=O)C12 (stereo not given)	0	-11	3	0	2	4.7	9784
COc1ccc(N=c2sc3ccccc3n2C)cc1	3	-133	5	1	4	13	8803
O=C(NCc1cccnc1)Nc1ccc(Cl)cc1	3	-8	11	-3	-6	2.9	4430
Cc1ccc(NC(=O)CSCc2ccco2)cc1	-2	-51	4	8	2	4.6	2559
COc1ccc(/C=C/C(=O)OCC(=O)NC(C)CCc2ccccc2)cc1OC (stereo not given)	/	-16	6	9	-1	3.0	?
O=C(N/C(=C\c1cccs1)C(=O)N1CCOCC1)c1cccs1	0	-6	3	2	5	4.1	3425
O=C1C(=O)N(Cc2cccnc2)C(c2ccccn2)/C1=C(/O)c1ccccc1 (stereo not given)	-5	-4	1	5	-3	-0.2	3804
CN(CCCC(=O)O)c1ccc(N=Nc2ccc([N+](=O)[O-])cc2)cc1	12	-96	-2	11	7	8.1	5927
COc1ccc(C(=O)On2c(-c3ccc(Br)cc3)nc3ccccc3c2=O)cc1	-2	-16	-18	-15	0	3.9	2144
Nc1ccc(SCc2cccnc2)cc1	-3	-26	3	-2	10	3.4	3098

Filtered by structure: the entries above with a furan ring, fused or not
canonical_smiles	BJeLR lethal	PrP 5UTR inh	ugtP null kill	Mtb hypoxia inh	Mtb hypoxia inh growth	RN4220 kill	Bead autofluor
O=C(NCC(=O)N(c1ccc2c(c1)OCO2)C(C(=O)NC1CCCC1)c1cccs1)c1ccco1 (stereo not given)	-1	-20	8	/	/	3.6	4182
Cc1ccc(NC(=O)CSCc2ccco2)cc1	-2	-51	4	8	2	4.6	2559

Carrying on.
canonical_smiles	BJeLR lethal	PrP 5UTR inh	ugtP null kill	Mtb hypoxia inh	Mtb hypoxia inh growth	RN4220 kill	Bead autofluor
CCCCC(=O)Nc1ccc(NC(=O)C2CC2)cn1	-2	-19	7	/	/	3.6	3079
COc1cc(/C=C/C(=O)c2ccc3c(c2)OCCO3)cc(Br)c1OCC(=O)N(C)C	47	-10	/	/	/	/	4718
CCc1c(C)c2ccc(OCC(=O)OC(C)C)c(C)c2oc1=O	-2	-35	46	7	5	-3.3	24390*
COC(=O)C1=C(C)N(Cc2ccco2)C(=O)NC1c1ccco1 (stereo not given)	/	/	-4	8	9	2.9	/
CC(C)Oc1ccccc1/C=N/NC(=O)c1ccccc1Cl	3	1	/	/	/	/	5234
O=C(Cc1ccccc1)NCC(=O)OCC(=O)c1ccc(F)cc1	-2	-8	-1	11	7	3.7	6068
CCn1c(SCC(=O)N2CCCCCC2)nc2ccccc2c1=O	7	1	9	-2	-3	6.1	2937
CC(C)(C)C(=O)Nc1nc2c(s1)CN(Cc1ccccc1)CC2	-1	-62	1	6	2	5.1	10960
S=C=Nc1ccccn1	2	-23	-14	16	13	2.3	3748
O=S(=O)(c1cc(C(F)(F)F)ccc1Cl)N1CCCCCC1	-2	-20	-4	6	8	9.2	9708
CC(C)c1c(O)nc(SCC(=O)Nc2ccc3c(c2)CCC3)[nH]c1=O	-11	-10	-4	/	/	7.0	2855
COc1ccc(NC(=O)C2Cc3ccccc3C(=O)O2)cc1 (stereo not given)	-10	1	-5	-4	9	1.5	4198
CC1CCC2C(=O)N(c3cccc(C(=O)Nc4ccc(F)cc4)c3)C(=O)C2C1 (stereo not given)	-1	-21	12	8	-1	2.6	5910
COc1cc(C(=O)NC(=S)Nc2cccc3nc(C)ccc23)cc(OC)c1OC	-1	7	4	5	2	6.0	3813
N#CC1=C(N)N(c2ccccc2)C(c2cccc([N+](=O)[O-])c2)C1(C#N)C#N (stereo not given)	-15	0	11	/	/	-7.5	2083
Cc1cc(C)c2c(CN3CCOCC3)cc(=O)oc2c1C	-7	-12	2	13	10	4.0	?
C[C@@H](O)C1NC(=O)[C@H](CCCCN)NC(=O)c2cc([N+](=O)[O-])cc(I)c2OCC[C@@H](C(N)=O)NC1=O (stereo not given in full)	-3	-5	/	/	/	/	2906
Cc1cccc(C(=O)Nc2nnc(S(=O)(=O)N(C)Cc3ccco3)s2)c1	-9	-26	17	0	6	23	5152
Cc1cc(N/N=C/c2ccccc2O)nc(N2CCOCC2)n1	-1	2	/	/	/	/	4598
Cc1ccc(NC(=O)Cn2cc(C(=O)C3CC3)c3ccccc32)c(C)c1	-10	-3	-2	6	13	-0.2	5384
CC(=O)Nc1ccc(NC(=S)NC(=O)C2CC2)cc1	-1	-4	/	/	/	/	4308
C=CC[n+]1c(C)csc1Nc1cccc(Br)c1	-13	-17	6	3	7	19	4298
CCOC(=O)C1=C(C)N(C)C(=O)NC1c1ccc2c(c1)OCO2 (stereo not given)	-2	-18	-1	6	6	4.8	3648
O=C(NNC(=O)c1cccc2ccccc12)c1ccc2c(c1)OCO2	-5	-59	-7	9	11	9.2	5302
CCCn1cnc2cc(NCc3cccc(OC)c3O)ccc21	-12	-25	3	1	11	5.5	19022*
Cc1nc2cc(C)c(C)cc2s1	2	-3	2	3	7	4.1	4430
O=C(c1ccccc1)c1c[nH]c2ccccc12	-1	/	15	-6	-3	4.1	3884
COc1ccccc1NC(=O)COC(=O)c1c[nH]c(=O)[nH]c1=O	3	-15	7	7	9	5.2	4219
NC(=NOC(=O)Oc1ccccc1)c1cccc([N+](=O)[O-])c1	/	/	5	1	12	5.1	/
CCN(C[C@H]1N[C@@](Cc2ccccc2)(C(=O)OC)[C@H]2C(=O)N(C)C(=O)[C@@H]12)C(=O)COc1ccccc1	/	-24	6	3	0	0.8	3799
COC(=O)C[C@H](NC(=O)Cn1cnc2c(OCc3ccccc3)ncnc21)C(=O)OC	/	-16	4	-10	-11	2.5	3856
COC(=O)c1sccc1NC(=O)CSCCc1ccncc1	8	-25	4	10	2	3.3	4162
COc1ccc(-c2cc(C(F)(F)F)n3nc(C(=O)NCc4ccco4)cc3n2)cc1OC	-4	-15	7	1	3	5.3	2879
CN(C)S(=O)(=O)Nc1ccc(NS(=O)(=O)N(C)C)c(S(=O)(=O)c2ccccc2)c1	-3	-5	-7	0	4	-1.3	5717
CCCCc1ccc(N2C(=NC(=O)C3CCCO3)SC3CS(=O)(=O)CC32)cc1 (stereo not given)	0	-30	1	0	5	1.0	5719
COC(=O)c1ccc(/C=C(\C#N)C(=O)NC(C)c2ccccc2)cc1 (stereo not given)	-5	-7	-14	6	5	1.0	1994
Oc1c(Cl)cc(Cl)cc1C=Nc1ccc2c(c1)OCCO2	-6	-15	5	10	8	5.0	9441
NS(=O)(=O)c1ccc(N/C=C\C(=O)c2ccncc2)cc1	-5	1	-1	6	11	1.6	3483
Cc1ccc(C)c(-c2cc(C(=O)NC3CC3)c3ccccc3n2)c1	/	-14	-1	3	13	-3.9	6179
O=C(c1ccc(CS(=O)Cc2ccc(Cl)cc2)o1)N1CCN(c2ccc(F)cc2)CC1 (stereo not given)	-8	-4	90*	7	11	-3.8	5452
O=C(C1=C[C@H](c2ccccc2)C[C@H](OCCCCO)O1)N1CCOCC1	0	-3	/	/	/	/	4210
CC12CCC(C(=O)NCc3ccco3)(OC1=O)C2(C)C (stereo not given)	11	-16	1	12	3	2.1	12733
COc1ccc(CCN2C(=S)N(c3ccccc3)C(=O)C2CC(=O)O)cc1OC (stereo not given)	-15	-4	2	4	9	0.1	3746
Cc1ccc(C#N)c(SCc2cccc(Br)c2)n1	-6	-27	3	5	9	1.6	3588
CN(N=C/C=C/c1ccccc1)C1=NS(=O)(=O)c2ccccc21	/	/	-11	0	0	10	/
COc1cc(/C=N/NC(=O)c2csc3c2CCCC3)ccc1OCCN1CCOCC1	-3	-15	/	/	/	/	5465
CCOc1ccc(NC(=O)CN2C(=O)NC3(CCCCCC3)C2=O)cc1	/	/	5	4	13	1.2	6643
CCOC(=O)c1sc(NC(=O)C2=COCCO2)c(C#N)c1C	-1	-25	-1	-10	3	-0.1	5517
COc1cccc(C=Nn2c(-c3n[nH]c4c3CCC4)n[nH]c2=S)c1O	/	/	-1	10	8	4.3	/
COc1cc(/C=C2/C(=N)N3C=CSC3=NC2=O)ccc1OCCCOc1c(C)cccc1C	0	-25	6	11	0	26	7192
O=P(/C(=N/O)N1CCOCC1)(N1CCOCC1)N1CCOCC1	-10	-24	/	/	/	/	4131
COc1ccc(OC)c(CCNC(=O)Cn2nc(C)c3c(C)n(-c4ccccc4)nc3c2=O)c1	14	-1	-4	-3	0	0.8	4734
COc1ccccc1CN1CCC(CNS(=O)(=O)c2cc(-c3onc(C)c3C)ccc2OC)CC1	10	-4	1	2	3	1.1	4095
CCN1C(=O)CC(N2CCC(c3nc4ccccc4[nH]3)CC2)C1=O (stereo not given)	4	-13	3	9	0	10	6070
O=C(NCCc1ccccc1)C1c2ccccc2C(=O)N1C1CC1 (stereo not given)	0	-7	5	-1	-4	1.1	?
Fc1ccc(C=NNc2cc(N3CCOCC3)ncn2)cc1	/	/	-5	-8	7	-1.6	/
Cc1ncc(CO)c(/C=N/N=C/c2ccccc2O)c1O	5	-91	/	/	/	/	2093

Screens: PubChem, several laboratories
